UBC13 polyUb: blocks human UBC13 polyubiquitin chain formation; inhibition, % at 20 µM; TR-FRET; 330,000 tested, 0.47% active; AID 485273; P61088; in the data active = inhibition above about 45%, passing the limit was not always enough
Target sequence (P61088 whole entry, looked up): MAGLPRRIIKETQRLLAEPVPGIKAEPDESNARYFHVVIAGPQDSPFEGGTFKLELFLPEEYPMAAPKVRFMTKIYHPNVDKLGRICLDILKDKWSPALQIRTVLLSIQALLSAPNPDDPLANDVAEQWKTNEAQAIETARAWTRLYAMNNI
Jurkat NFkB inh: lowers PMA/ionomycin-induced NF-kB signal in Jurkat cells; PMA/ionomycin-induced NF-kB luciferase reporter, luminescence; inhibition, % at 4 µM; 330,000 tested, 0.53% active; AID 435003; in the data active = inhibition above about 50%
697 NFkB inh: lowers PMA/ionomycin-induced NF-kB signal in 697 B cells; 330,000 tested, 0.33% active; 697 B-cell NF-kB luciferase reporter, 16 h; inhibition, % at 4 µM; in the data active = inhibition above about 35%
Gli-Sufu block: antagonists of Gli-Sufu signaling | inhibition, % at 5 µM | 340,000 tested, 0.74% active | Sufu-KO-LIGHT fibroblasts, Gli luciferase reporter luminescence | AID 588413;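 active = inhibition above about 55%, limit read from the data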;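 note: 0% = DMSO-treated cells and 100% = wells with medium but no cells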
APJ antag: APJ receptor antagonism; P35414; CHO-K1 APJ beta-arrestin complementation, luminescence; 330,000 tested, 0.32% active; AID 2521; inhibition, % at 20 µM;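 active = inhibition above about 40% at 20 µM, limit read from the data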;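 note: cells challenged with 10 nM apelin-13 agonist together with compound; plate controls were apelin-13 plus DMSO wells for no effect and DMSO wells lacking apelin-13 for full effect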
Target sequence (P35414 whole entry, looked up): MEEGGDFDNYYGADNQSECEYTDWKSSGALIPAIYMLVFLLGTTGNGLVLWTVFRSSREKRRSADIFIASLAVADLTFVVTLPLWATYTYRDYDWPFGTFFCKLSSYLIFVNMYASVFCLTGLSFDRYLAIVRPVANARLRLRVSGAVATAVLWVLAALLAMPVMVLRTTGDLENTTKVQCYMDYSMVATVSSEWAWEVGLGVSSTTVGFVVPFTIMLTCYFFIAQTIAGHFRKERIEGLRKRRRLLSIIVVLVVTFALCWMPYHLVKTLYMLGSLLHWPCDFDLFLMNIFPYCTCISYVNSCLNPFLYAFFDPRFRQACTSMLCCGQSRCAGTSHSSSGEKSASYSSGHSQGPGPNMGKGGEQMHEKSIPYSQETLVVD
EBI2 block: blocks human EBI2 receptor beta-arrestin signaling | P32249 | EBI2 beta-arrestin recruitment, luminescence, 7a,25-OHC stimulated | inhibition, % at 5 µM | 360,000 tested, 0.81% active | AID 651636; in the data active = inhibition above about 38%;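 note: enzyme fragment complementation signal reports receptor beta-arrestin coupling in cells; 0% = agonist plus DMSO wells and 100% = wells without agonist; some results beyond the cut were filed as inactive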
Target sequence (P32249 whole entry, looked up, the tested form may be a part): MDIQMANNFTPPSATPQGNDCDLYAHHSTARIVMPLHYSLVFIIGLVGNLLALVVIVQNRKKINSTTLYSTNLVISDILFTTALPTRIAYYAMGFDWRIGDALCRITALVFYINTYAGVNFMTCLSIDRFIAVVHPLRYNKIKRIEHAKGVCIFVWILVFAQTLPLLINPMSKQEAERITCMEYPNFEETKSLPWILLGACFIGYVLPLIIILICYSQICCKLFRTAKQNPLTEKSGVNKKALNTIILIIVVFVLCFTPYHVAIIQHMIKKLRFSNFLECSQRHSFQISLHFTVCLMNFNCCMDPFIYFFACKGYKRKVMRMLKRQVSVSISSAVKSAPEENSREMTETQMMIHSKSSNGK
Active calls of the source: *; . = not tested or not shown.

SMILES | UBC13 polyUb | Jurkat NFkB inh | 697 NFkB inh | Gli-Sufu block | APJ antag | EBI2 block
CC(Oc1ccc(-c2ccccc2)c(F)c1)c1ccn(S(=O)(=O)c2ccc(F)cc2)n1 (stereo not drawn) | 1 | -4 | -2 | 8 | -2 | 24
CCOC(=O)[C@@H](C)N(C(=O)OC(C)(C)C)S(=O)(=O)N(Cc1ccccc1)[C@H](C(=O)OC)C(C)C | . | . | . | 11 | . | 7
O=C(NC(=S)Nc1ccccc1O)c1ccc(Cl)cc1Cl | 7 | -25 | -59 | -26 | 10 | 13
CCN(CC)CCNC(=S)NC(=O)c1cn(-c2ccccc2)nc1-c1ccc(OC)cc1 | 21 | -8 | -26 | 16 | 18 | 12
COCCS(=O)(=O)N(Cc1ccccc1)[C@H](C(=O)OC)C(C)C | . | . | -3 | -5 | . | -5
COc1ccccc1NC(=O)CSC1CC(=O)N(c2ccc3c(c2)OCO3)C1=O (stereo not drawn) | -7 | -8 | 13 | -4 | -10 | 2
O=C(NC1CCCC1)C1CCN(C(=O)c2ccc(Cl)cc2Cl)CC1 | -7 | -1 | 4 | -2 | -9 | 4
CC(/C=N/NC(=O)c1cccc([N+](=O)[O-])c1)=C\c1ccccc1 | 3 | -36 | -24 | -27 | -2 | 9
CCOC(=O)C1CCN(c2ncnc3c2c(-c2ccccc2)cn3-c2ccc(C)cc2)CC1 | 8 | -9 | -5 | . | 4 | 27
C/C(CC(=O)NCC(C)C)=N\NC(=O)COc1cc(C)c(Br)cc1Br | 7 | -2 | -7 | 6 | 6 | -26
Cc1cc(O)c(NC(=S)NC(=O)c2ccc(-c3ccc(Cl)cc3)o2)cc1C | -27 | -13 | -27 | -1 | 26 | 21
COc1ccccc1CC(=O)Nc1ccc(-c2noc(COc3ccc(Cl)c(C)c3)n2)cc1 | -19 | 5 | 1 | 17 | -2 | 16
CC(C)CCNC(=O)[C@H](Cc1ccccc1)N1Cc2ccccc2C1=O | 2 | 6 | 8 | 3 | 8 | 3
CC(C)c1ccc(-c2csc3ncnc(N4CCN(C)CC4)c23)cc1 | -2 | 1 | -21 | 7 | -7 | 19
C=CCn1c(=O)c2ccccc2n2c(Sc3nnnn3-c3ccccc3)nnc12 | 3 | 12 | 18 | 7 | 25 | 11
O=C1CC(Sc2nnc(-c3ccccc3O)o2)C(=O)N1c1ccccc1 (stereo not drawn) | 8 | 16 | 16 | 1 | -16 | -2
Cc1ccc(CS(=O)(=O)c2ncc(Cl)c(C(=O)Nc3nnc(C)s3)n2)cc1 | 7 | 28 | 13 | 19 | 16 | -3
O=C(CSc1ncnc2c1cnn2-c1ccc(F)cc1)NCc1ccc2c(c1)OCO2 | 5 | -24 | -21 | 3 | 10 | 0
Cn1nnc(NC(=O)c2ccc(Br)o2)n1 | 0 | -15 | -15 | -23 | 4 | -8
O=C(N/N=C/c1coc2ccccc2c1=O)c1cccc([N+](=O)[O-])c1 | . | . | . | -4 | . | -8
COc1cccc(C2C(C(=O)Nc3cccnc3)=C(C)Nc3nnnn32)c1OC (stereo not drawn) | 8 | 5 | 18 | 12 | 11 | -5
COc1cc(C)c(NC(=S)Nc2cccc(Cl)c2)cc1OC | 8 | 0 | 8 | 5 | 0 | 0
Cc1ccc(OCC(=O)Nc2nc(-c3ccccn3)cs2)c(C)c1 | 2 | -5 | -22 | -2 | 12 | 6
Cc1cc(C)cc(OC(C)C(=O)Nc2ccc3c(c2)n(C)c(=O)n3C)c1 (stereo not drawn) | -10 | 12 | -17 | 7 | 7 | -3
Cc1sc2ncn(CC(=O)NCCCC(=O)N3CCN(c4ccccc4)CC3)c(=O)c2c1C | 4 | 6 | 14 | 5 | -15 | -3
CCOc1cc(/C=C2\C(=O)N(c3nc(-c4ccc(Br)cc4)cs3)N=C2c2ccccc2)ccc1O | -14 | -2 | -3 | 0 | 23 | 27
O=C(OCn1nnc2ccccc2c1=O)c1cc(-c2ccccc2)nc2ccccc12 | 18 | 0 | 14 | -7 | 0 | -4
CC(NC(=O)COC(=O)Cc1ccccc1[N+](=O)[O-])c1ccccc1 (stereo not drawn) | -10 | 4 | -4 | -2 | 11 | 1
CN(C)CCN(C(=O)C1CCCCC1)c1nc2cc3c(cc2s1)OCO3 | -4 | -10 | -5 | 53 | 8 | 4
CCN(CCNC(=O)C1CCN(S(C)(=O)=O)CC1)c1ccccc1 | 0 | -15 | 7 | 13 | 7 | -10
COc1ccc(S(=O)(=O)N(CCCN2CCOCC2)Cc2cccc(OC)c2OC)cc1 | -3 | -9 | -4 | 4 | 6 | 6
CC(=O)CSc1nnc(C(F)(F)F)n1C | 4 | 13 | 7 | 4 | 1 | -3
COc1ccc(-c2cc(C(=O)OCC(=O)NC3CC3)c3ccccc3n2)cc1 | 36 | -9 | -6 | -20 | -8 | 9
CC(=O)COC(=O)c1cc(-c2ccc(C)cc2)nc2ccccc12 | 15 | -11 | -16 | -16 | 5 | -5
CC(=O)NS(=O)(=O)c1cccnc1Nc1ccc(Cl)c(Cl)c1 | -4 | -8 | -10 | -2 | 2 | 9
CC1COCC(C)N1C1=C(Cl)C(=O)c2ccccc2C1=O (stereo not drawn) | . | . | . | 8 | . | -37
CCOCCCn1c(=S)[nH]c2cc(C(=O)NCCOC)ccc2c1=O | -2 | 5 | 2 | -2 | 4 | -3
O=C(CSc1nc2ccccc2o1)Nc1nccs1 | 7 | 1 | -2 | -3 | 10 | -4
CC(NC(=O)COC(=O)CNC(=O)c1ccc(-c2ccccc2)cc1)c1ccccc1 (stereo not drawn) | -6 | 0 | -1 | -9 | -5 | 3
COc1ccc(/C=C/C(=O)NC(=S)N2CCN(c3ccccn3)CC2)cc1 | -8 | 1 | 9 | -13 | -4 | 61*
CCCCCc1ccc(CC(=O)O)cc1 | 21 | 11 | 8 | 13 | -16 | 3
CC1=C(C(=O)Nc2ccccn2)C(c2cccnc2)n2nnnc2N1 (stereo not drawn) | -4 | -16 | -28 | 4 | 19 | 2
Cc1ccc(C(=O)N/N=C/c2ccoc2)cc1C | 0 | -17 | -6 | -23 | 6 | -1
CC1=CC(C)C2C(=O)N(CCCN(C)C)C(=O)C2C1 (stereo not drawn) | 1 | 6 | 8 | 2 | 18 | -11
CC(C)C(C)(C#N)NC(=O)CSc1nnc(C(F)(F)F)n1C (stereo not drawn) | 0 | 3 | 14 | 13 | 17 | -3
S=c1nc(-c2ccccc2Cl)[nH][nH]1 | -3 | -18 | 4 | 1 | -18 | -18
COc1ccc(-c2nnc(SC)o2)c(OC)c1 | -6 | -29 | -47 | -22 | 7 | -9
COc1ccc(C(C)=O)cc1COc1cccc2cccnc12 | 7 | 2 | 6 | 9 | 1 | -1
CCCCCc1ccc(CC(=O)N2CCOCC2)cc1 | -4 | -13 | -2 | 35 | -19 | -4
CS(=O)(=O)c1ccc(C(=O)NNC(=O)c2ccccc2-n2cccc2)cc1 | 6 | 3 | 12 | 0 | 6 | -1
COC(=O)[C@H](C(C)C)N(Cc1ccccc1)S(=O)(=O)CCN1CCCC1 | . | . | 9 | 4 | . | -15
CC(=O)N1CCc2cc(C(=O)CN3CCC(C)CC3)ccc21 | 6 | -1 | 9 | 3 | 12 | -6
CCNC(=O)N1C(=O)C2(OCCO2)c2ccccc21 | 5 | 4 | 11 | -1 | 10 | 1
COc1ccc(CN2CCN(c3ncnc4scc(-c5ccc(F)cc5)c34)CC2)cc1 | 2 | 3 | -47 | 17 | 7 | 8
Cc1ccc(NC(=O)N2C(=O)C3(OCCO3)c3ccccc32)cc1 | 6 | -48 | -50 | -17 | 12 | -1
O=C(O)CN1C(=O)SC(Nc2ccc(C(=O)O)cc2)C1=O (stereo not drawn) | -7 | -11 | -7 | -10 | 17 | 0
O=C(CSc1nc(O)cc(=O)[nH]1)C1CC1 | -4 | 16 | 4 | 0 | 17 | -6
Cc1no[n+]([O-])c1COc1ccc(/C=N/n2nnnc2N)cc1 | 2 | 50* | -11 | -3 | -9 | 4
CCOc1ccc(C(=O)N/N=C/c2cccc3cccnc23)cc1 | -9 | -1 | 13 | 6 | 25 | 2
CCn1nnc(NC(=S)NC(=O)c2ccc(-c3cccc(Cl)c3)o2)n1 | -8 | -29 | -9 | -8 | 20 | 12

Shown as labelled records: 4 of the compounds above
COc1ccc(-c2nnc(SC)o2)c(OC)c1
  UBC13 polyUb = -6 | Jurkat NFkB inh = -29 | 697 NFkB inh = -47 | Gli-Sufu block = -22 | APJ antag = 7 | EBI2 block = -9

COC(=O)[C@H](C(C)C)N(Cc1ccccc1)S(=O)(=O)CCN1CCCC1
  UBC13 polyUb = . | Jurkat NFkB inh = . | 697 NFkB inh = 9 | Gli-Sufu block = 4 | APJ antag = . | EBI2 block = -15

S=c1nc(-c2ccccc2Cl)[nH][nH]1
  UBC13 polyUb = -3 | Jurkat NFkB inh = -18 | 697 NFkB inh = 4 | Gli-Sufu block = 1 | APJ antag = -18 | EBI2 block = -18

CCCCCc1ccc(CC(=O)N2CCOCC2)cc1
  UBC13 polyUb = -4 | Jurkat NFkB inh = -13 | 697 NFkB inh = -2 | Gli-Sufu block = 35 | APJ antag = -19 | EBI2 block = -4

Carrying on:
SMILES | UBC13 polyUb | Jurkat NFkB inh | 697 NFkB inh | Gli-Sufu block | APJ antag | EBI2 block
COC(=O)c1c(CCl)noc1C(=O)NC(C)C | 4 | -5 | 22 | 12 | -2 | 5
C/C(CC1CC2=C(CC1(C)C)C(C)(C)CCC2)=N\NC(N)=S (stereo not drawn) | 15 | 31 | 11 | 8 | 24 | 21
CC(C)Oc1cccc(C(=O)NC(=S)Nc2cccc(C(F)(F)F)c2)c1 | -3 | 2 | -2 | 48 | 20 | 10
Cc1ccc(C)c(-c2csc(NC(=O)c3cnccn3)n2)c1 | -18 | -3 | -24 | 2 | 25 | 9
CSc1ccc2[nH]c(=O)cc(C)c2c1 | 9 | -8 | 10 | 2 | -1 | -4
O=C(Nc1ccccc1)C1=C(O)CC(c2ccoc2)CC1=Nc1ccccc1 (stereo not drawn) | -12 | 6 | 8 | 24 | 8 | 5
CC1=C(C)CC(C(=O)NC2CCN(C(C)C)CC2)C(C(=O)O)C1 (stereo not drawn) | -2 | 1 | 3 | -14 | 9 | 8
O=C1C=C(c2ccccc2)C(=O)N1Nc1ccccc1 | 5 | 6 | 4 | -18 | 8 | 3
O=C(NN=Cc1c(F)c(F)c(F)c(F)c1F)c1ccc(NS(=O)(=O)c2cccs2)cc1 | -6 | -5 | 8 | -5 | 5 | -8
COc1ccc(-c2nnc(-c3ccc4ccccc4c3)o2)cc1 | . | . | . | -58 | . | 21
COc1cccc(C(=O)N2CCN(Cc3ccccc3Br)CC2)c1 | -11 | -6 | -33 | 9 | -2 | -6
COC(=O)c1ccc(NCC(=O)c2ccccc2)cc1 | -2 | -8 | -8 | 10 | 72* | 7
COC(=O)C1=NN(c2ccccc2OC)C2C(=O)N(c3ccccc3OC)C(=O)C12 (stereo not drawn) | -9 | -2 | -2 | 24 | 4 | -11
O=C(N/N=C/c1ccoc1)c1ccccc1Br | -2 | 6 | 1 | 9 | -6 | -2
CCOc1ccc(C=NNc2ccc(S(=O)(=O)Nc3ccccc3C(=O)O)cc2[N+](=O)[O-])cc1 | -114 | 1 | 1 | 0 | 25 | 8
O=C(NC(=S)Nc1ccccc1N1CCCC1)c1ccc([N+](=O)[O-])cc1 | -12 | 8 | -3 | -11 | 26 | 9
O=C(NNC(=O)c1ccccc1-n1cccc1)c1ccc(Cl)c(Cl)c1 | 5 | 8 | 25 | 2 | 5 | -1
C/C(=N\NC(=O)c1ccc(NS(=O)(=O)c2cccs2)cc1)c1ccc(C(C)(C)C)cc1 | -15 | -1 | -28 | 7 | -3 | 0
CCCc1nnc(NC(=O)c2nc(S(=O)(=O)Cc3cccc(C)c3)ncc2Cl)s1 | 54* | 10 | -16 | 9 | 12 | 25
CCCNC(=O)c1c(N)n(-c2cccc(OC)c2)c2nc3ccccc3nc12 | 14 | -8 | -13 | 13 | -1 | 26
COc1ccc(-n2cc(-c3ccccc3)c3c(N4CCN(CCO)CC4)ncnc32)cc1 | 22 | 17 | -1 | -2 | 6 | 12
O=[N+]([O-])c1ccccc1S(=O)(=O)Oc1ccc(/C=N/n2cnnc2)cc1 | -8 | -4 | 9 | 16 | -39 | 0
COc1cccc2cc(C(=O)CS(=O)(=O)c3ccc(C)cc3)c(=O)oc12 | -6 | 1 | -5 | -13 | -2 | -10
CCCNC(=O)COC(=O)c1cc(-c2ccc(OC)cc2)nc2ccccc12 | 15 | -46 | -8 | 6 | -7 | 4
Cc1ccc(/C=C2/Sc3ccc(C(=O)N4CCN(c5ccccn5)CC4)cc3NC2=O)cc1 | -3 | -11 | -30 | 2 | 3 | 6
Cc1ccc(NCc2nnc(SCC(=O)NCc3ccco3)n2CC2CCCO2)c(C)c1 (stereo not drawn) | 1 | 6 | 2 | 8 | 10 | 2
CCOC(=O)CCSc1nc(N2CCOCC2)c2c(c1C#N)CC(C)(C)OC2 | 28 | 0 | -2 | -6 | 3 | -12
COCCOc1cc(N)c(Cl)cc1Cl | -1 | -15 | 8 | 0 | -2 | 0
CC(/C=C/c1ccccc1)=N/NC(=O)c1cccc(Br)c1 | 4 | 2 | -31 | 6 | 15 | -23

Not all compounds are listed (hit frequency here may not be typical).
